ClpP mod – qHTS Assay for Activators of ClpP; ATP-dependent Clp protease proteolytic subunit (Bacillus subtilis (strain 168)), P80244; purified B. subtilis ClpP, FRET peptide cleavage, 20 min; Potency, µM (doses to about 57.5 µM), for the others: top-dose activity change, negative = active; actives 1.9% (n = 340,000); AID 651965, 2013; active = well fitted falling curve with a large enough effect; inconclusive = small, poorly fitted or top-dose-only effect; inactive = no such curve, though single readings can be large or run the other way; note: potency is the fitted concentration of half-maximal effect; the source files actives as falling curves though it sought activators and does not explain the sign; nearly all actives have a fitted effect of over 65% in size; many hits overshoot -100%
Target sequence (P80244 whole entry, looked up): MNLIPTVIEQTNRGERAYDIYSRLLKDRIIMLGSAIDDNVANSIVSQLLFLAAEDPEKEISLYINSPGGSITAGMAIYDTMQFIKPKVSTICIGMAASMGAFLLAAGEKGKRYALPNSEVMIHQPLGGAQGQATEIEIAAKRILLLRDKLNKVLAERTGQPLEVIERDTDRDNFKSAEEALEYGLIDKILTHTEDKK
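FRET quenching reversal measured ClpP activation: 10 microg/mL B. subtilis ClpP at pH 8 with the FRET-FV decapeptide, read at 430 nm after 320 nm excitation. The 20-min minus 0-min signal was scaled between DMSO/no-enzyme wells and ADEP (5.8 microM final).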
TRPML1 inh – human mucolipin-1 channel inhibition. activity change, negative = inhibition, % (test concentration not listed). TRPML1-inducible cells, Ca2+ dye fluorescence, FDSS; active compounds read low; inhibition of EC80 agonist-evoked calcium signal. Q9GZU1. actives 0.02% (n = 390,000). AID 624415; in the data active means activity change below about -50%; inconclusive means about -30% to -50%; inactive means above about -30%;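 note: stimulus is agonist 54-4 at its EC80 concentration; % is set by controls: 0 for no effect and ±100 for the full control effect; compound concentration not given in the record; the text of the record puts the active cut at -80%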
Target sequence (Q9GZU1 whole entry, looked up): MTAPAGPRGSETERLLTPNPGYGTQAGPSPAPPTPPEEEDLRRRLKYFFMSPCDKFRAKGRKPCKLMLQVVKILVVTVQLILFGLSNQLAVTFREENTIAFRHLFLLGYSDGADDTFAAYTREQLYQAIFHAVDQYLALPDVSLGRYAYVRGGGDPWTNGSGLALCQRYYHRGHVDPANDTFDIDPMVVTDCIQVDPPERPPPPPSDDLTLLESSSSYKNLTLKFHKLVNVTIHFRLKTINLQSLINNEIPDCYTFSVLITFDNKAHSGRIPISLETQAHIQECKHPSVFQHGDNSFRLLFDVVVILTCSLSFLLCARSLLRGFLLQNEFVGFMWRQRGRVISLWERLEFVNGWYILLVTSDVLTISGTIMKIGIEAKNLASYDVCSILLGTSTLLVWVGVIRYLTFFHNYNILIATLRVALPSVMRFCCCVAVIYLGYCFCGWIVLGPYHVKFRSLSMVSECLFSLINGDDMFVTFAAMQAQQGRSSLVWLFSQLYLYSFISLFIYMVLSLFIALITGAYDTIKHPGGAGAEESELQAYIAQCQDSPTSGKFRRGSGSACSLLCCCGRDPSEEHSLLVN
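Calcium fluorescence in TRPML1-DL cells induced overnight with Tet: a 110 s read after compound pin addition, then a 110 s antagonist read after challenge with 54-4 at 4 uM final (EC80).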
TRPML1 ag – activates the human TRPML1 channel; activation, % (concentration not given with the values); TRPML1-expressing cells, Ca2+ dye fluorescence, FDSS; host cell line not named in the record; reference of the full effect not given here; actives 0.12% (n = 410,000); Q9GZU1; in the data active = activation above about 50%; inconclusive = about 30% to 50%; inactive = below about 30%; note: 0% is about no effect; the text of the record puts the active cut at 80%
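Tetracycline-induced TRPML1-DL cells are seeded and incubated overnight before loading with a no-wash Ca2+ dye and quencher. Agonist activity is taken from the 110 s fluorescence read following compound pin-transfer on an FDSS, before EC80 54-4 challenge.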
Menin-MLL FL inh – menin-MLL binding inhibition, fluorescein peptide | Fluorescence polarization, fluorescein-MLL peptide displacement from menin | FP activity change, % at 61.4 µM | 290,000 tested, under 10 active | AID 1766; inconclusive = falling polarisation curve, or a change in total fluorescence; inactive = total fluorescence flat and polarisation flat or rising; no compound was filed as active; the % refers to the polarisation; negative = inhibition;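 note: % of control where 0% means no effect; inhibitors lower the polarisation; unlabelled MLL peptide was the positive control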
Sfp PPTase inh – inhibitors of Bacillus subtilis Sfp phosphopantetheinyl transferase; Q9F4F7; Biochemical Sfp PPTase activity, qHTS; Potency, µM, for inactives: max response, negative = inhibition, actives largely listed as inhibitors; actives 3.5% (n = 310,000); active = well fitted inhibition curve with a large enough effect; inconclusive = small, poorly fitted or top-dose-only effect, or another doubt; inactive = no such curve, though single readings can be large or run the other way;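 note: the enzyme is Sfp with the accession as filed and its product quenches rhodamine fluorescence; potency is the fitted concentration of half-maximal effect; 0% = enzyme reaction without inhibitor and -100% = no enzyme wells; top concentration of the series not given in the record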
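Sfp 15 nM + cpd, 15 min RT; start w/ rhodamine-CoA 5 uM, BHQ-2-YbbR 12.5 uM (final); 50 mM Hepes pH 7.6, 10 mM MgCl2, 0.01% NP-40, 0.01% BSA; read 525/598 nm at 0 and 30 min.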
TRPV1 potentiator – enhances activation of the human vanilloid receptor TRPV1 | potentiation, % at 8.33 µM | Q8NER1 | TRPV1-expressing cells, Fluo-8 calcium influx, capsaicin EC20 potentiation; host cell line not named in the record; control for the full effect not named in the record | actives 0.02% (n = 320,000); active means potentiation above 80%; inconclusive means 30% to 80%; inactive means below 30%; note: 0% is about no effect
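Fluo-8 calcium influx in TRPV1-expressing cells, kinetic read (ex 480/em 520 nm). Compound added and read 3 min for agonist activity, followed by capsaicin at EC20 final and 2 min further read for enhancement.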
PINK1 modulator – changes PINK1 expression | actives 0.2% (n = 410,000) | Potency, µM (highest dose often 76.6 µM), for inactives: at the highest dose activation (PINK1 increase), usual class: activators | PINK1 immunofluorescence, high-content cytometry, 24 h | AID 624263; active = well fitted activation curve with a large enough effect; inconclusive = small, poorly fitted or top-dose-only effect; inactive = flat fitted curve, though single readings scatter; cell line not stated here;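 note: potency is the fitted concentration of half-maximal effect; % of control where 0% means no effect; nearly all actives have a fitted effect of over 65% in size; a mitochondrial uncoupler was the plate control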
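Stable cell line, 250 cells/well, 12 h attachment; compounds pinned at 5 concentrations, 24 h; CCCP control. Fixed with nuclear dye, primary antibodies 12 h at 10 degrees C, secondary plus cell stain; laser-scanning cytometer read.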
* hit, by the source's call; ? = inconclusive; nt = not tested or not shown; [ ] = another dose, or the depositor's remark.

no.	SMILES	ClpP mod	TRPML1 inh	TRPML1 ag	Menin-MLL FL inh	Sfp PPTase inh	TRPV1 potentiator	PINK1 modulator
1	CCCCCCSc1nnc(N)s1	nt	-2	-0.2	2.8	10%	-4	0.8%
2	COc1cc([C@@H]2c3cc4c(cc3[C@@H](O)[C@H]3COC(=O)[C@H]23)OCO4)cc(OC)c1O[Si](C)(C)C(C)(C)C	3.3%	16	-0.4	4.6	-11%	-13	-2.2%
3	CC(C)(C)OC(=O)N[C@@H](Cc1c[nH]c2ccccc12)c1nnc(SCC(N)=O)o1	0.4%	-5	-0.5	-0.2	3%	8	1.2%[38.3 µM]
4	Cc1ccc(S(=O)(=O)N(C)c2ccc(OCC(=O)OCc3c(C)noc3C)cc2)cc1	-6.9%	11	2.6	-0.2	13%	15	0.2%
5	Cc1ccc(CN2CCC(CNC(=O)c3cnn(-c4ccccc4)c3C3CCN(C(=O)OC(C)(C)C)CC3)CC2)cc1	-2.6%	4	-0.2	nt	nt	nt	1.6%
6	COc1cccc(C(=O)NCCc2csc(-c3ccc(Cl)cc3)n2)c1	-11%	-5	1.5	nt	nt	nt	8.3%
7	COc1ccc(-c2cc(C(=O)NNC(=S)NC(=O)c3c(-c4ccccc4)noc3C)[nH]n2)cc1	nt	4	1.4	-0.3	29%	12	13%
8	O=C(Nc1ccccc1)c1nc[nH]c1C(=O)N1CCc2ccccc2C1	-0.5%	-5	0.4	nt	nt	-2	12%
9	CC(=O)Nc1ccc(NC(=O)CCC(=O)Oc2ccc(C)cc2)cc1	1.0%	-3	0.2	-1.3	2%	10	-0.3%
10	COCCN(CC(=O)Nc1ccccc1C(F)(F)F)C(=O)/C=C/c1cc(Cl)c2c(c1)OCO2	-13%	6	-1.3	nt	nt	4	1.6%
11	CO/N=C/c1ccc(N2CCCC2)c([N+](=O)[O-])c1	nt	20	0.6	-0.8	6%	-6	0.3%
12	Cc1ccc(-c2c(C(=O)N/N=C/c3cccs3)nnn2-c2nonc2N)cc1	2.2%	63	1.4	nt	6%	7	0.9%
13	CC1CCN(C(=O)c2ccc(CNS(=O)(=O)c3ccc(C(C)(C)C)cc3)cc2)CC1	0.2%	0	3.8	nt	nt	nt	17%
14	O=C(Nc1ccccc1Cl)OCc1cncs1	0.7%	29	-0.2	-4.8	18%	8	-0.7%
15	O=C(NC(Cc1ccccc1)C(=O)N1CCCCC1)c1ccccc1 (stereo not drawn)	-0.3%	-5	0.3	nt	nt	-19	-5.4%
16	Cn1c(=O)[nH]c(=O)c2c1nc(N1CCOCC1)n2Cc1ccccc1	0.1%	-10	-0.6	nt	nt	nt	0.9%
17	CC1(C)Cc2c(sc(NC(=O)Cc3ccccc3)c2C#N)C(C)(C)N1	0.8%	-5	-1.1	nt	nt	nt	0.1%
18	N#Cc1c(N)n(CCNC(=O)c2cccs2)c2nc3ccccc3nc12	5.5%	19	-0.3	6.7	9%	-8	4.7%
19	O=C(COC(=O)CNS(=O)(=O)c1ccc(Br)cc1Cl)NCCc1ccccc1	0.7%	25	-0.8	nt	17%	9	1.5%
20	COc1ccccc1CNc1cc(-c2ccccc2OC)ncn1	nt	nt	nt	-0.9	-12%	nt	1.6%
21	CCc1cccc(NC(=O)Cn2cccc2)c1	0.2%	4	-0.2	2.7	?	-4	-0.7%[38.3 µM]
22	CC(=O)Nc1cccc(C(=O)OCc2ccc([N+](=O)[O-])cc2)c1	0.8%	-10	-0.1	-5.4	19%	-9	0.9%
23	Cc1cc(C(C)C)n2c(nc3ccccc32)c1C#N	nt	nt	nt	9.1	25%	-3	nt
24	COc1cc2nc(Nc3ccc(C)c(Cl)c3)nc(N)c2cc1OC	nt	8	-0.7	-28	45µM*	19	-3.7%
25	Cc1ccc(CNC(=O)c2c(C)cc(=O)oc2C)cc1	-0.9%	-7	3.1	1.4	4%	4	3.7%[38.3 µM]
26	O=S(=O)(NCCS(=O)(=O)N1CCN(c2ccccc2F)CC1)c1ccc(Cl)cc1	2.2%	8	3.5	nt	nt	nt	2.8%
27	COc1cc(/C=N/N2C(=O)CSC2=S)cc(Br)c1O	0.4%	2	21	?	-6%	2	-1.2%
28	O=C(NCCCN1CCOCC1)c1cc(-c2ccc(Br)cc2)nc2ccccc12	?	-5	1.6	nt	nt	-28	4.8%
29	O=c1[nH][nH]c2c1[C@H](c1ccc(F)cc1)O[C@H](C1CCCCC1)C2	1.0%	nt	-0.6	nt	nt	nt	1.2%
30	O=Cc1ccc(-c2ccccc2C(=O)O)o1	nt	12	1.4	-0.7	11%	-1	-1.1%

4 of the compounds above, field by field.
20. COc1ccccc1CNc1cc(-c2ccccc2OC)ncn1
  ClpP mod: nt
  TRPML1 inh: nt
  TRPML1 ag: nt
  Menin-MLL FL inh: -0.9
  Sfp PPTase inh: -12%
  TRPV1 potentiator: nt
  PINK1 modulator: 1.6%

21. CCc1cccc(NC(=O)Cn2cccc2)c1
  ClpP mod: 0.2%
  TRPML1 inh: 4
  TRPML1 ag: -0.2
  Menin-MLL FL inh: 2.7
  Sfp PPTase inh: ?
  TRPV1 potentiator: -4
  PINK1 modulator: -0.7%[38.3 µM]

22. CC(=O)Nc1cccc(C(=O)OCc2ccc([N+](=O)[O-])cc2)c1
  ClpP mod: 0.8%
  TRPML1 inh: -10
  TRPML1 ag: -0.1
  Menin-MLL FL inh: -5.4
  Sfp PPTase inh: 19%
  TRPV1 potentiator: -9
  PINK1 modulator: 0.9%

23. Cc1cc(C(C)C)n2c(nc3ccccc32)c1C#N
  ClpP mod: nt
  TRPML1 inh: nt
  TRPML1 ag: nt
  Menin-MLL FL inh: 9.1
  Sfp PPTase inh: 25%
  TRPV1 potentiator: -3
  PINK1 modulator: nt

Next records
no.	SMILES	ClpP mod	TRPML1 inh	TRPML1 ag	Menin-MLL FL inh	Sfp PPTase inh	TRPV1 potentiator	PINK1 modulator
31	Cc1cc(C(=O)COC(=O)c2ccc(NC(=O)CC#N)cc2)c(C)n1CCc1ccc(F)cc1	-5.3%	-22	2.1	nt	nt	-3	0.4%
32	COc1ccc(N(CC(=O)N2CCCC2)S(C)(=O)=O)cc1	-0.7%	1	0.5	-0.4	15%	-8	-0.9%
33	CCOC(=O)Cn1c(=O)oc2cc(S(=O)(=O)N3CCN(c4ccccn4)CC3)ccc21	-18%	-3	-0.9	0.4	10%	13	6.5%
34	Cn1c(SCc2cccc3ccccc23)nnc1-c1ccco1	1.2%	-1	0.1	3.6	1%	-8	0.8%
35	O=C(c1ccc(Br)o1)N(c1ccccn1)C1CCCCC1	1.3%	5	0.0	4.3	4%	-5	-1.7%
36	CSc1nnc(-c2ccc(O)cc2)n1C	3.3%	11	0.2	-0.8	17%	-1	-4.0%[38.3 µM]
37	O=C(COC(=O)c1ccccc1Oc1ccccc1)NC1CCS(=O)(=O)C1 (stereo not drawn)	0.5%	-1	0.7	1.5	7%	5	-1.3%
38	COc1ccccc1-c1nc(S(=O)(=O)c2ccc(Cl)cc2)c(N(C)C)o1	-1.4%	6	0.4	-1.5	?	-9	nt
39	Cc1cc(-c2n[nH]c(=S)n2Cc2ccco2)nn1C	-4.0%	0	0.3	3.4	-7%	0	-0.2%
40	Cc1cc(C)cc(N(C(=O)C2CCCC2)C2C=CS(=O)(=O)C2)c1 (stereo not drawn)	-0.6%	2	-0.1	-1.0	3%	?	nt
41	Cc1ccc(C)c(S(=O)(=O)Nc2cc(SCC(=O)O)c(O)c3ccccc23)c1	25%	0	-0.5	?	3.5µM*	25	0.5%
42	O=c1c(-c2cccc3ccccc23)[n+]([O-])c2ccccc2n1O	-4.8%	-8	2.5	-0.8	-6%	27	-0.2%
43	CCN1CCN(C(=O)c2nn(-c3ccccc3)c(=O)c3ccccc23)CC1	-1.1%	5	0.1	-0.1	18%	4	1.9%[38.3 µM]
44	CN(C)CCCN(C(=O)c1ccc(S(=O)(=O)N(C)C2CCCCC2)cc1)c1nc2ccc(F)cc2s1	-1.0%	2	0.8	nt	-20%	8	-1.7%
45	COc1ccc(/C=N/NC(=O)c2cc(O)c(O)c(O)c2)cc1Cn1cc([N+](=O)[O-])cn1	0.3%	?	0.8	-1.5	-121%	1	0.0%

Entries listed so far printed as active in Sfp PPTase inh.
item	canonical_smiles	TRPML1 inh	Menin-MLL FL inh	Sfp PPTase inh	PINK1 modulator
24	COc1cc2nc(Nc3ccc(C)c(Cl)c3)nc(N)c2cc1OC	8	-28	45µM*	-3.7%
41	Cc1ccc(C)c(S(=O)(=O)Nc2cc(SCC(=O)O)c(O)c3ccccc23)c1	0	?	3.5µM*	0.5%

Looked up above.
no. 3 in Menin-MLL FL inh has -0.2
no. 1 in TRPV1 potentiator has -4
no. 30 in Sfp PPTase inh has 11%

Additional records follow:
no.	SMILES	ClpP mod	TRPML1 inh	TRPML1 ag	Menin-MLL FL inh	Sfp PPTase inh	TRPV1 potentiator	PINK1 modulator
46	COc1ccc(-c2ccc(=O)n(Cc3ccccc3)n2)cc1	-24%	nt	nt	1.2	0%	21	0.4%
47	COc1ccc(N2CCN(C(CNC(=O)C(=O)NCc3ccc(F)cc3)c3cccnc3)CC2)cc1 (stereo not drawn)	1.1%	-9	1.5	nt	nt	nt	1.2%
48	COC(=O)C1Sc2[nH]c(=O)sc2C2c3ccccc3OC(=O)C12 (stereo not drawn)	0.9%	-8	0.0	28	17%	1	nt
49	Cc1cccc(NC(=O)C2CCCN(S(=O)(=O)c3ccc(Br)s3)C2)c1 (stereo not drawn)	5.1%	24	4.1	nt	nt	nt	0.6%
50	Cc1nccn1CC(O)COc1ccc(Cl)cc1Cl (stereo not drawn)	nt	21	1.1	6.2	13%	-15	4.1%
51	Cn1nccc1C(=O)N1CCN(c2cccc(C(F)(F)F)c2)CC1	-1.3%	23	0.3	nt	17%	-16	0.9%

2 of these compounds, reformatted.
(49) Cc1cccc(NC(=O)C2CCCN(S(=O)(=O)c3ccc(Br)s3)C2)c1 (stereo not drawn)
  ClpP mod: 5.1%
  TRPML1 inh: 24
  TRPML1 ag: 4.1
  Menin-MLL FL inh: nt
  Sfp PPTase inh: nt
  TRPV1 potentiator: nt
  PINK1 modulator: 0.6%

(50) Cc1nccn1CC(O)COc1ccc(Cl)cc1Cl (stereo not drawn)
  ClpP mod: nt
  TRPML1 inh: 21
  TRPML1 ag: 1.1
  Menin-MLL FL inh: 6.2
  Sfp PPTase inh: 13%
  TRPV1 potentiator: -15
  PINK1 modulator: 4.1%

Screens from PubChem.
